Vaccinia mCherry = qHTS for Stage-Specific Inhibitors of Vaccinia Orthopoxvirus: mCherry Reporter Primary qHTS; AID 720579, 2013; 310,000 tested, 0.63% active; Potency, µM (doses to about 36.5 µM), inactives show top-dose activity change, negative = inhibition, most hits filed as inhibitors; Vaccinia virus mCherry reporter infection, fluorescence; about a quarter of the inactives have no number; active = well fitted inhibition curve with a large enough effect; inconclusive = small, poorly fitted or top-dose-only effect; inactive = no such curve, though single readings can be large or run the other way; tested in A549 cells; note: nearly all actives have a fitted effect of over 35% in size; inactives centre near -10
Vaccinia Venus = qHTS for Stage-Specific Inhibitors of Vaccinia Orthopoxvirus: Venus Reporter Primary qHTS; Vaccinia virus Venus reporter expression, fluorescence; Potency, µM (series often up to 36.5 µM), without a hit: at the highest dose activity change, negative = inhibition, usual class: inhibitors; 330,000 tested, 0.46% active; active means well fitted inhibition curve with a large enough effect; inconclusive means small, poorly fitted or top-dose-only effect; inactive means no such curve, though single readings can be large or run the other way; tested in A549 cells; note: nearly all actives have a fitted effect of over 30% in size; inactives centre near -10
An asterisk follows results filed as active; i = inactive; ? = inconclusive; . = not tested or not shown; & = joins results of further samples; [ ] = another dose, or the depositor's remark. % is set by controls: 0 for no effect and ±100 for the full control effect; potency is the fitted concentration of half-maximal effect. Compounds as they come; about 0.87% have a hit in one of these screens.

structure | Vaccinia Venus | Vaccinia mCherry
COCC(=O)NC1CC2CCC(C1)N2C(=S)Nc1ccccc1C(=O)OC (configuration not stated) | -11% | 6%
CCCCn1c(N)c(N(CCOC)C(=O)c2ccc(N(C)S(=O)(=O)c3ccc(C)cc3)cc2)c(=O)[nH]c1=O | -5% | i
Cc1c(Cl)sn(-c2ccc(Cl)cc2)c1=O | ? | ?
O=C1COc2ccc(C(=O)NCc3ccco3)cc2N1 | -11% | -14%
N=c1sccn1CC(=O)Nc1ccc(S(N)(=O)=O)cc1 | -24% | -26%
CCOC(=O)/C(C#N)=C/Nc1cc(C(C)(C)C)sc1C(C)=O | 3% | 2%
O=[N+]([O-])c1ccc(Oc2cccc3cccnc23)c(Cl)c1 | -29% | -16%
C=CCc1cc(C)ccc1OCCOCCC(C(=O)OCC)C(=O)OCC | -3% | -15%
COC(=O)c1c(C)oc2ccc(N(C(=O)c3ccncc3)S(=O)(=O)c3ccc(C)cc3C)cc12 | ? | -11%
CCNC(=O)CSc1ncnc2sccc12 | -20% | .
O=C(N/N=C/c1ccncc1)c1cc(-c2ccc(Br)s2)[nH]n1 | -14% | -30%
CCC(O)C1CCN(C(=O)c2cc(COc3ccc4ncccc4c3)on2)CC1 (configuration not stated) | -24% | -18%
O=C(Nc1nccs1)C1CC(=O)N(c2ccc(Cl)cc2)C1 (configuration not stated) | -4% | -7%
Cc1ccc(NC(=S)NC2CCSc3ccccc32)cc1 (configuration not stated) | -20% | ?
Cc1ccc(OCC(O)CNCc2ccc(F)cc2)cc1 (configuration not stated) | 7% | -14%
CCCCC12CN3CC(C)(CN(C1)C3c1ccc(O)c(OC)c1)C2=O (configuration not stated) | -15% | -10%
COc1ccc(N2CC(NC(=O)C3CCCCC3)CC2=O)cc1 (configuration not stated) | -6%[7.34 µM] | -7%[7.34 µM]
C=CCc1cc(C)ccc1OCCn1ccnc1 | -12% | -17%
O=C(CCN1C(=O)C2C3C=CC(C3)C2C1=O)NCc1cccnc1 (configuration not stated) | -17% | .
Cc1ccc2ccccc2n1 | -18% | -16%
Cc1ccc2c(CC(=O)N3CCOc4ccc(CN5CCOCC5)cc4C3)cc(=O)oc2c1 | -6% | -12%
Cc1ccc2cc(CN(CC3CCCO3)C(=O)Nc3ccccc3F)c3nnnn3c2c1 (configuration not stated) | -14% | i
CCN1C(=O)[C@H]2[C@H]3CN=C(SC)N3[C@@](C)(C(=O)OC)[C@H]2C1=O | -1% | -2%
CC1CCc2nc3ccc(S(=O)(=O)N4CCC(C(=O)NC5CCCC5)CC4)cc3c(C(=O)O)c2C1 (configuration not stated) | -11% | 0%
Cc1cc(=O)n2c(C(=O)Nc3ccc(F)c(Cl)c3)c(C(=O)Nc3cccc(C)c3C)sc2n1 | 6% | 2%
OC(CNCCc1ccccc1)COc1ccc(OCC(O)CNCCc2ccccc2)cc1 (configuration not stated) | ? | -22%
CCn1cc(S(=O)(=O)c2ccc(OC)cc2)c(=O)c2cc(OC)ccc21 | -3% | -12%
O=C(O)c1ccccc1C(=O)N1CCN(C(=O)c2ccccc2Cl)CC1 | 5% | -22%
Cn1ncc(Cl)c1C(=O)NC(=S)Nc1sc2c(c1C#N)CCCCC2 | -3% | -15%
Cc1ccc(S(=O)(=O)Cc2nc(-c3ccc(C(=O)NCc4ccccc4)cc3)oc2C)cc1 | ? | ?

Profiles from above. Order of values: Vaccinia Venus	Vaccinia mCherry
CCN1C(=O)[C@H]2[C@H]3CN=C(SC)N3[C@@](C)(C(=O)OC)[C@H]2C1=O across the screens: -1%	-2%
CCn1cc(S(=O)(=O)c2ccc(OC)cc2)c(=O)c2cc(OC)ccc21 across the screens: -3%	-12%

Further compounds:
structure | Vaccinia Venus | Vaccinia mCherry
CC(=O)c1ccc(NC(=O)CCS(=O)(=O)c2ccc3c(c2)n(C)c(=O)c(=O)n3C)cc1 | -7% | -16%
Cc1cccc2sc(N(CCCN(C)C)C(=O)c3nc4ccccc4s3)nc12 | -7% | i
O=C(NC1CCCN(Cc2ccc(Cl)cc2)C1)c1ccccc1C(F)(F)F (configuration not stated) | -7% | i
CSc1sc(C(=O)NCC2CC2)c2c1S(=O)(=O)N(C)c1ccccc1-2 | 0% | i
CCCCOC(=O)n1c(SCC(=O)N(C)C)nc2ccccc21 | -9% | -11%
COc1cccc(CN2CCC(C(=O)NC(c3ccc4c(c3)OCO4)c3ccccn3)CC2)c1 (configuration not stated) | -6% | 20%
COc1ccc(S(=O)(=O)N(C)C[C@H]2OCc3cn(nn3)CCCC(=O)N([C@H](C)CO)C[C@@H]2C)cc1 | -12% | -13%
Cc1ccc(Nc2c(-c3ccc(N(C)C)cc3)nc3nc[nH]n23)cc1 | -8%[7.34 µM] | -19%[7.34 µM]
CC(=O)N1CCC(N(C(=O)Nc2ccc(C)c(C)c2)C2CCCC2)CC1 | 6% | -5%
O=C(Nc1ccccc1C(=O)O)c1ccc(CN2C(=O)c3ccccc3C2=O)cc1 | -13% | ?
CCOC(=O)C1CC(=NO)c2ccc(OC)c(OC)c2C1 (configuration not stated) | -2% | -4%
Cc1ccccc1/C=N/Nc1ccnc2cc(Cl)ccc12 | ? | ?
CC1CCCC(NC(=O)COC(=O)Cc2c[nH]c3ccccc23)C1C (configuration not stated) | 8% | 0%
COC(=O)C1CCN(C(=O)/C=C/c2ccccc2)CC1 | 0% | -3%
CC(=O)c1cc(C#N)c(NCCCN(C)C)nc1C | -5% | -13%
N#Cc1ccc(C(=O)Nc2ccn(-c3ccccc3)n2)cc1 | -7% | -11%
COc1ccc(NC(=O)C2CC(=O)N(c3ccccc3C)C2)c(OC)c1 (configuration not stated) | -6% | 5%
O=C(CSc1nc(-c2ccc(Cl)cc2)[nH]c(=O)n1)Nc1cccc(Cl)c1 | -3% | i
O=C(CSc1nc2c(c(=O)[nH]1)CN(Cc1ccc3c(c1)OCO3)CC2)Nc1ccc(F)c(F)c1 | 3% | -6%
COc1ccc(NC(=O)CSc2nc3c(c(=O)[nH]2)CN(Cc2ccccc2)CC3)cc1Cl | 10% | -2%
COc1ccc(N2CCN(C(=O)CCNS(=O)(=O)c3ccc4c(c3)CCN4C(=O)C3CC3)CC2)cc1 | 4% | -15%
COc1ccc(NC(=O)CSc2nnc(CNc3ccc(C)cc3)n2C)cc1 | -8% | ?
O=C(OC1CCOC1=O)c1cc(Cl)ccc1[N+](=O)[O-] (configuration not stated) | -2% | i
Cc1ccc(-c2nnc(N3CCN(S(C)(=O)=O)CC3)c3ccccc23)cc1 | -28% | -16%
CC1(Cc2ccc(Cl)cc2)C(=O)Nc2c(Cl)cccc21 (configuration not stated) | -1% | -9%
COc1cccc(Nc2c3c(nc4nncn24)CCC3)c1 | -18% | -18%
CCOc1ccc(NC(=O)CN2C(=O)COc3ccc(S(=O)(=O)NC4CCCC4)cc32)cc1 | -15% | -21%
Cc1nc2ccccn2c1-c1csc(Nc2cccc(C(=O)O)c2)n1 | -14% | -25%
COc1ccccc1/C=C/c1onc(C)c1S(=O)(=O)N1CCC(C(=O)N2CCC(C)CC2)CC1 | -18% | -4%
COc1cccc(OC)c1C(=O)NC(=S)NCc1ccco1 | -11% | -13%
CC(C)(C)Nc1nc(Cl)nc(NC(C)(C)C)n1 | -17% | -7%
CC(OC(=O)c1ccc2c(c1)C(=O)N(Cc1ccncc1)C2=O)C(=O)Nc1cccc(Cl)c1Cl (configuration not stated) | -4% | -11%
Cc1csc2nc(O)c(C(=O)NCC3CCCO3)c(=O)n12 (configuration not stated) | -5% | -11%
CC(C)CC1C(=O)N(Cc2cn(CC3CCCCC3)nn2)CCS(=O)(=O)N1Cc1ccc(-c2ccc(F)nc2)cc1 (configuration not stated) | ? | ?
OC(CN1CCN(c2ccccc2)CC1)c1ccc2c(c1)CCN2 (configuration not stated) | 4% | ?
O=C1CCN(Cc2ccccc2)CCN1[C@H](COc1ccccc1)c1ccccc1 | -7%&-8% | -12%
Cc1ccc(C)c(-c2nn(CC(=O)Nc3cc(F)ccc3F)c(=O)c3c2CCCC3)c1 | -7% | 0%
COc1ccccc1N=C1SCC(=O)N1Cc1ccco1 | -1%[7.34 µM] | -4%[7.34 µM]
CCS(=O)(=O)c1nc(S(=O)(=O)c2ccc(C)cc2)c(NC)s1 | -3% | -3%
O=C(Nc1cnc2ccccc2c1)c1ccco1 | -14% | -10%
O=C(Nc1nnc(CSCc2ccc(Cl)cc2)s1)c1cccc([N+](=O)[O-])c1 | -6% | -8%
O=C(CN1C=NS(=O)(=O)c2ccccc21)Nc1ccccc1F | -6% | 2%
COc1ccc(NC(C)=O)cc1S(=O)(=O)NC1CCSc2ccccc21 (configuration not stated) | -4% | -11%
Cc1ccc(C(=O)NCCCN2CCOCC2)cc1N1CCCC1=O | -10% | -14%
CC1CCN(S(=O)(=O)c2ccc3c(c2)CCN3C(=O)Nc2ccc(Br)cc2F)CC1 | -15% | -13%
O=C(Nc1ccncc1NC(=O)c1cccc([N+](=O)[O-])c1)c1cccc([N+](=O)[O-])c1 | -17% | -6%
CCCCOC(=O)C(NC(=O)c1ccccc1)=C(C)C | -20% | .
CCC1(c2ccc(F)cc2)NC(=O)N(CC(=O)NCC(=O)Nc2cccc(C)c2C)C1=O (configuration not stated) | -17% | i
CCOc1ccc(CCN2C(=O)C(=O)N([C@@H](Cc3ccc(O)cc3)CN3CCC[C@H]3CN3C(=O)C(=O)NC[C@@H]3Cc3ccc(O)cc3)C[C@@H]2Cc2ccc(O)cc2)cc1 | -5% | 3%
CCC(CC)NC(=O)COC(=O)c1cc(SC)ccc1Cl | -2% | -11%

(more compounds)
structure | Vaccinia Venus | Vaccinia mCherry
CCCCOc1ccc(S(=O)(=O)NC(=O)NCc2ccc(OCCC)cc2)cc1 | -2% | -10%
Cc1cc(=O)oc2c(C)c(OCC(=O)N(C)C)ccc12 | 1% | .
CCOC(=O)C(NC(=O)c1cccc(Cl)c1)(Nc1nnc(C)s1)C(F)(F)F (configuration not stated) | -9% | i
Cn1cc(C(=O)Nc2ccccn2)c(=O)c2ccccc21 | -2% | i
Cc1cc(C(=O)COC(=O)CN(C)S(=O)(=O)c2ccc(Cl)cc2)c(C)n1CC1CCCO1 (configuration not stated) | 3% | -6%
CC(=O)/C(C#N)=C1\NC(=O)C(Cc2ccc(F)cc2)S1 (configuration not stated) | 86%[activator] | -16%
CCOc1cc(/C=N/N=C2/NC(=O)C(CC(=O)O)S2)ccc1OCc1ccc(Cl)cc1Cl (configuration not stated) | 4% | 4%
Fc1ccccc1NC(=S)N1CCCCC1 | 2% | -6%
CC(OC(=O)Cc1ccc(Br)cc1)C(=O)NC1CCCC1 (configuration not stated) | -11% | -7%
CC(=O)NC1(c2ccc(F)cc2)CCN(C(=O)c2c(F)cccc2F)CC1 | -17% | -23%
C#CCn1cnc2c(cnn2-c2ccc(F)cc2)c1=O | -9% | -9%
Clc1ccc(C(OCCN2CCCCC2)c2ccccc2)cc1 (configuration not stated) | -9%&-15% | -24%
O=C(COc1cccnc1[N+](=O)[O-])NCCc1ccccc1 | 5% | -26%
COc1ccc2c(CC(=O)OCC(=O)NC(=O)c3cccn3C)coc2c1 | 13% | .
Cc1ccc(-n2c(C)cc(/C=c3/sc4nc5ccccc5n4c3=O)c2C)cc1 | 2% | .
Cc1ccc(NC(=O)N2CCOCC2)cc1NC(=O)N1CCOCC1 | -4% | -20%
C(=NNc1ccc2ccccc2n1)c1ccccn1 | ? | 1.8µM*
COc1ccc(NC(=O)CS(=O)(=O)c2ccc(Br)cc2)cc1 | -5% | -25%
Cc1ccccc1NC(=O)Cn1c(=O)n(Cc2ccco2)c(=O)c2ccc(C(=O)NC3CCCC3)cc21 | -18% | -18%
Cc1cc(C)c(S(=O)(=O)NC(C)C)c(C)c1-n1cnnn1 | -3% | -2%
Cc1ccc(C)c(NC(=O)NNC(=O)c2cc3ccccc3cc2O)c1 | -10% | -10%
O=C(NC1CCCC1)C(c1ccc(Cl)cc1)N1CCN(C2CCCCC2)CC1 (configuration not stated) | -7% | -15%
O=S(=O)(c1ccc(F)cc1)N1CCC(O)(c2ccc3c(c2)OCO3)CC1 | 1% | -16%
COc1cccc(CNc2nc3nc4c(c(=O)n3[nH]2)CCC4)c1 | -14% | .
COc1ccc(/C=N/NS(=O)(=O)c2ccc(C)cc2)cc1OC(=O)c1ccccc1 | 4% | .
CCOC(=O)c1[nH]c2ccccc2c1NC(=O)c1ccccc1F | -4% | -20%
Cc1ccc(NC(=O)c2ccc3c(=O)n4c(nc3c2)CCCCC4)cc1F | -16% | -20%
CC(C)(C)C(=O)CN1C(=O)NC(c2ccccc2)(c2ccccc2)C1=O | 2% | -16%
CC(=O)c1cccc(N(CC(=O)NCC2CCCO2)C(=O)CCC(=O)Nc2cc(C)on2)c1 (configuration not stated) | -10% | -12%
COc1cccc2sc(N(CCN(C)C)C(=O)c3ccc(S(=O)(=O)N4CCCC4)cc3)nc12 | -3% | -16%
CCn1c(SCC(=O)c2cc(OC)ccc2OC)nnc1-c1ccncc1 | -6% | -15%
CCOc1ccc(OCCNC(=O)c2ccc3c(c2)nnn3CC)cc1 | -14% | -8%
CCC(C)NC(=O)CC(NS(=O)(=O)c1ccc(NC(C)=O)cc1)C(C)C (configuration not stated) | -3% | i

From PubChem
